Screening data deposited in PubChem BioAssay by National Center for Advancing Translational Sciences (NCATS).
HSD17B inhib = blocks hydroxysteroid 17-beta dehydrogenase activity. Q99714. recombinant HSD17B10, NADH fluorescence kinetic; many of its hits are not listed in these tables. Potency, µM (titrated, usually from 57.1 µM), for the others: at the highest dose activity change, negative = inhibition, actives largely listed as inhibitors. actives 7.6% (n = 75,000); active means well fitted inhibition curve with a large enough effect; inconclusive means small, poorly fitted or top-dose-only effect; inactive means no such curve, though single readings can be large or run the other way;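 further: the protocol describes HADH2 (HSD17B10) and not the HSD17B4 of the title; nearly all actives have a fitted effect of over 70% in size; most hits overshoot -100% by far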
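Enzyme plus compound, 15 min room temperature; substrate mix added (NAD+ 1 mM, beta-hydroxybutyryl-CoA 90 uM final); plates read kinetically for NADH fluorescence. HADH2 was His-tagged, E. coli-derived, 20 nM.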
An asterisk follows results filed as active; ? = inconclusive; [ ] = another dose, or the depositor's remark. On the % scale 0 is the no-effect control and ±100 the full control effect; potency means the concentration at half of the fitted maximal effect. Only part of the results is shown. The share of hits here may be higher or lower than overall.

entry	Molecule	HSD17B inhib
1	COC(=O)c1ccc(Cl)c(NC(=O)NC2CCCCC2)c1	-1.0%
2	O=C(Nc1ccc2c(c1)OCCO2)c1c(F)c(F)c(F)c(F)c1F	4.3%
3	CS(=O)(=O)Nc1ccc(OCc2ccccc2)cc1	0.1%
4	Cc1c(NC(=O)Cn2nc(C(=O)O)c3ccccc3c2=O)c(=O)n(-c2ccccc2)n1C	5.3%
5	Cc1cc(C)cc(N(C(C)C(=O)Nc2c(C)n(C)n(-c3ccccc3)c2=O)S(C)(=O)=O)c1 (stereo unspecified)	9.8%
6	COc1cccc(C(=O)OC(C)CN2CCCC2)c1 (stereo unspecified)	-10.1%
7	CC(C)c1nnc(NC(=O)CCC(=O)NCC2CCCO2)s1 (stereo unspecified)	-0.4%
8	Cc1sc(NC(=O)CSc2nnnn2C2CCCC2)c(C#N)c1C	2.5%
9	O=C(Nc1ccon1)c1cccc(Cl)c1	1.3%
10	CC(c1nnc(SCn2nnc3ccccc3c2=O)n1-c1ccc(Cl)cc1)N(C)C (stereo unspecified)	0.1%
11	Cn1c(N)c(C(=O)CSc2nc3ccccc3n2-c2ccccc2)c(=O)n(C)c1=O	-3.4%
12	CSC1=C(C#N)C(CC(C)C)C(C(C)=O)=C(C)N1 (stereo unspecified)	2.6%
13	CC(C)=CCC1(CC=C(C)C)C(=O)C(C(=O)c2ccccc2)=C2OC(C)(C)CCC2(CC=C(C)C)C1=O (stereo unspecified)	1.3%[11.4 µM]
14	COc1ccc(-c2ccc3c(n2)CCCN3C[C@H](O)CN2CCCc3nc(-c4ccc(Br)cc4)ccc32)cc1	?
15	CCOc1cc(C(=O)Nc2c3c(nn2C(C)(C)C)CS(=O)C3)cc(OCC)c1OCC (stereo unspecified)	13.9%
16	O=C(O)CSc1cccc2cccnc12	25.1µM*
17	COc1cc(C2NC(=O)NC(C)=C2C(=O)OCc2ccccc2)ccc1O (stereo unspecified)	-2.9%
18	COCCn1c(COc2ccccc2)nnc1SCC(N)=O	9.9%
19	COc1cc2c(c(OC)c1)C(c1ccncc1)CC(=O)N2 (stereo unspecified)	4.8%
20	CC(C)(C)OC(=O)NCCc1nnc(S(=O)(=O)Cc2ccc(Cl)cc2Cl)o1	-17.7%
21	COc1cccc(C(=O)Nc2c(F)c(F)c(F)c(F)c2F)c1	6.0%
22	COc1cccc(-c2cc(C(F)(F)F)nc(N3CCOCC3)n2)c1	31.6µM*
23	O=c1c(CCc2ccccc2)nc2cnc(N3CCOCC3)nc2n1C1CC1	1.8%
24	CCOC(=O)c1cc(C(=O)OCC)c2cc(Br)ccc2n1	-4.9%
25	CCc1ccc(NC2=NC(C(=O)NC3CCCCC3)CC(=O)N2)cc1 (stereo unspecified)	3.3%
26	Cc1cc2ccccc2c(=O)n1CC(=O)NCC(=O)N1CCN(c2cccc(Cl)c2)CC1	?
27	COC(=O)C1CCN(C(=O)COC(=O)Cn2cnnn2)CC1	3.7%
28	COc1ccccc1OCCCCCNCCO	5.9%
29	c1ccc(CNc2ccnc(-c3cccnc3)n2)cc1	9.4%
30	COc1ccc(S(=O)(=O)Cc2ccc(C(=O)N3CCN(c4cccc(C)c4C)CC3)o2)cc1	-10.5%
31	Cc1ccc(OCCCC(=O)Nc2nncs2)cc1	-4.6%
32	COc1ccc2[nH]cc(C(=O)CN3CCCCC3C)c2c1 (stereo unspecified)	3.0%
33	COc1ccc(-c2c(C)oc3cc(O)cc(O)c3c2=O)cc1OC	-17.1%
34	Oc1ccccc1-c1cc(-c2cccc(F)c2)n[nH]1	-17.0%
35	O=C(Cn1cnc2c(cnn2-c2ccc(F)cc2)c1=O)NCC1CCCO1 (stereo unspecified)	-9.2%
36	Cc1ccc(Nc2nc(N)nc(CN3CCCCCC3)n2)cc1	8.3%
37	CC(C)n1c(CCC(=O)O)ccc1-c1ccccc1	?
38	Cn1c(CNc2nc3ccccc3n2C)nc2ccccc21	1.6%
39	CC(C)C(C(=O)Nc1ccccc1)N1C(=O)c2ccccc2C1=O (stereo unspecified)	-17.1%
40	CCOCCCNCc1cccc(OC)c1	9.2%

For convenience, 4 of the compounds above:
entry	Molecule	HSD17B inhib
21	COc1cccc(C(=O)Nc2c(F)c(F)c(F)c(F)c2F)c1	6.0%
22	COc1cccc(-c2cc(C(F)(F)F)nc(N3CCOCC3)n2)c1	31.6µM*
23	O=c1c(CCc2ccccc2)nc2cnc(N3CCOCC3)nc2n1C1CC1	1.8%
24	CCOC(=O)c1cc(C(=O)OCC)c2cc(Br)ccc2n1	-4.9%

Carrying on.
entry	Molecule	HSD17B inhib
41	Cc1ccccc1OCc1nc(-c2ccc(-n3cccc3)cc2)no1	?
42	CCOC(=O)C1=C(N)n2c(s/c(=C\c3cccnc3)c2=O)=C(C(=O)OCC)C1c1cccnc1 (stereo unspecified)	-1.4%
43	Cc1ccccc1NC(=O)CSc1nc(N)c(C#N)cc1C#N	?
44	CC(C)CCNC(=O)C(c1ccco1)N(Cc1ccc(F)cc1)C(=O)c1snc(C(N)=O)c1N (stereo unspecified)	25.1µM*
45	COc1ccc(CN(Cc2nc3ccccc3c(=O)[nH]2)C(=O)C(C)(C)C)cc1	-3.3%
46	O=C(NC1(C(=O)O)CCCC1)c1ccccc1	1.5%[11.4 µM]
47	CC1(C)CC(NC(=O)C2CCCCC2C(=O)O)CC(C)(C)N1 (stereo unspecified)	0.5%
48	O=C(NCCCN1CCCC1=O)c1cc(=O)c2ccccc2o1	5.6%
49	Fc1ccccc1CSc1ncnc2c1oc1ccccc12	-25.2%
50	Cc1cc2c(N)cccc2nn1	-1.1%
51	COc1ccc(C(=O)N2CCc3cc(OC)c(OC)cc3C2)cc1OC	-1.5%
52	C/C(=C\C(=O)c1ccc(C)cc1)Nc1cccc(O)c1	?
53	CCCCCc1nc2ccccc2c(=O)n1N	4.7%
54	CC1(C)Cc2c(sc3ncn4nc(CCC(=O)O)c(=O)nc4c23)CO1	31.6µM*
55	COC(=O)c1c(N)c(C#N)c2n1CCCCC2	4.7%
56	CCCS(=O)(=O)N1CCCC(C(=O)N2CCN(c3ccccn3)CC2)C1 (stereo unspecified)	25.1µM*
57	COc1ccc(-c2cc(C(=O)Nc3cccc(C(C)=O)c3)no2)cc1	-5.1%
58	COC(=O)c1[nH]c2ccccc2c1NC(=O)CN1CCC(C(N)=O)(N2CCCCC2)CC1	?
59	COc1cccc(C2CC(c3ccccc3OC)n3nc(N)nc3N2)c1 (stereo unspecified)	-7.0%
60	COC(=O)C(NS(C)(=O)=O)(c1c(C)[nH]c2ccccc12)C(F)(F)F (stereo unspecified)	10.1%
61	O=C(NCc1ccccc1)c1cc(-n2cnnc2)ccc1Cl	7.3%
62	C/C(Cl)=C/Cn1c(=O)c2c(nc(Br)n2Cc2ccccc2)n(C)c1=O	-3.5%
63	CC(=O)Cc1nsc(NC(=O)c2ccc(-c3cc(C(F)(F)F)ccc3Cl)o2)n1	-1.1%
64	CCn1c(Cc2c(C)[nH]c3ccccc23)nnc1SCC(N)=O	6.2%
65	CCCCNC(=O)Nc1cc(C(F)(F)F)c[nH]c1=O	-8.1%
66	Clc1ccccc1-c1nccc(-n2ccnc2)n1	-18.2%
67	COc1cccc(C(CC(=O)NCc2ccco2)NS(=O)(=O)c2ccc(C)cc2)c1OC (stereo unspecified)	2.9%
68	CCOC(=O)Nc1ccc2c(c1)N(C(=O)CN1CCN3CCCC3C1)c1ccccc1CC2 (stereo unspecified)	4.3%
69	CC(=O)NC(c1ccccc1)c1cccnc1 (stereo unspecified)	0.7%
70	CC(=O)OC1CC2C(C)(C)C(=O)[C@@H]3OC3[C@@]2(C)C2CC[C@]3(C)C(=CC(=O)OC3c3ccoc3)[C@]12C (stereo partly specified)	-5.3%
71	O=C(C(Cc1ccccc1)n1cccc1)N1CCN(C2CCCCC2)CC1 (stereo unspecified)	-2.7%
72	COc1ccccc1-c1cc(C(F)(F)F)nc(NCc2ccco2)n1	25.1µM*
73	Oc1c(Cl)cc(Cl)c(Cl)c1Cl	?
74	O=C(NCc1ccc(F)cc1)c1cc2n(n1)C(C(F)(F)F)CC(C1CC1)N2 (stereo unspecified)	10.3%
75	CC(C)CC(c1nnnn1Cc1ccco1)N1CCN(C2CCCC2)CC1 (stereo unspecified)	0.9%
76	CCC(C)(C)n1nnnc1C(c1cccs1)N1CCN(c2nc3ccccc3s2)CC1 (stereo unspecified)	18.4%
77	CCOc1ccc(CCNC(=O)CCN2C(=O)COc3ccccc32)cc1OCC	2.0%
78	CC(=O)Oc1ccc(N2C(=O)CCC2=O)cc1	-2.2%
79	Cc1ccc(C)c(N2CCN(C(=O)c3ccccc3Br)CC2)c1	-3.7%
80	O=C(c1ccco1)N1CCN(C(=O)N2c3ccccc3Sc3ccccc32)CC1	-7.6%
81	COc1ccc(C2=NOC(C(=O)N3CCCc4ccccc43)C2)cc1 (stereo unspecified)	-4.4%
82	COc1ccc(CN2CC34C=CC(O3)C(C(=O)O)C4C2=O)cc1 (stereo unspecified)	11.4%
83	NCC1CCCCC1CC(=O)O (stereo unspecified)	4.0%
84	O=C1NC(=O)C(CC(=O)N(Cc2ccco2)C2(C(=O)NC3CCCC3)CCCCC2)N1 (stereo unspecified)	8.1%
85	COc1cccc(C=Nc2ccc3c(c2)OCCO3)c1O	1.4%
86	COc1cc2c(C(=O)NCCCOC(C)C)cn(CC(C)C)c(=O)c2cc1OC	-3.1%
87	COCCOC(=O)CC1=NC(=O)CS1	5.3%
88	Cc1ccc(-c2c(C#N)c(N)nc3c2CCCCC3)o1	-18.0%
89	Cc1ccc(C(=O)c2coc3ccc(OCC(=O)O)cc23)cc1	-6.7%
90	O=c1[nH]cnc2c1nc(SCc1ccccc1)n2C1OC(CO)C(O)C1O (stereo unspecified)	-9.8%
91	CCS(=O)(=O)n1nc(C(=O)N2CCOCC2)nc1N	-0.1%
92	CCOC(=O)Cn1c(=O)oc2cc(S(=O)(=O)Nc3cc(OCC)ccc3OCC)ccc21	-4.6%
93	O=C(Oc1cccc(Oc2ccccc2)c1)N1CCOCC1	-7.9%
94	COc1ccc(CNC(=O)Cn2cnc3c(=O)n(C)c(=O)n(C)c32)cc1	-0.2%
95	O=C(NCc1ccccc1Cl)C1CCN(S(=O)(=O)N2CCCCC2)CC1	-9.4%
96	COc1ccc(-n2cnnc2SCC(=O)c2ccc(S(=O)(=O)N3CCOCC3)cc2)cc1	3.3%
97	COc1cccc([C@@H]2Oc3ccc(OC)cc3/C(=N/OC[C@@H](C)[C@H](OCc3ccccc3)C(C)C)[C@@H]2O)c1	-1.0%[11.4 µM]
98	Cc1noc(C)c1CSc1nc2sc(C)c(C)c2c(=O)n1-c1ccccc1	4.8%
99	CC(=O)Nc1ccc(-n2c(C)c(C(C)=O)c(C(C)=O)c2C)cc1	3.4%
100	O=C(CP(=O)(c1ccccc1)c1ccccc1)N1CCCCC1	0.2%

Other compounds follow.
entry	Molecule	HSD17B inhib
101	CC1CCc2c(sc3c2C2=NS(=O)(=O)CCN2C=N3)C1 (stereo unspecified)	-23.9%
102	COc1ccc(OC)c(C2CC(=O)N3CN(c4ccccc4F)CSC3=C2C#N)c1 (stereo unspecified)	?
103	CCOC(=O)C1=C(C)NC(C)=C(C(=O)OCC)C1C(=O)O	2.0%
104	O=C(Nc1ccccc1F)C1CCCN(S(=O)(=O)c2cccc3cccnc23)C1 (stereo unspecified)	9.8%
105	CC(=O)Nc1ccc(C2C(C)CCC3C(=O)N4C(CCC(C)[C@@H]4c4ccc(NC(C)=O)cc4)C(=O)N32)cc1 (stereo partly specified)	4.7%[11.4 µM]
106	Cc1cc(C)nc(SCC(=O)c2cc3ccccc3oc2=O)n1	-16.0%
107	Cc1cc(S(=O)(=O)N2CCOCC2)ccc1F	3.4%
108	O=C(O)C1CC=C(Cl)CC1C(=O)NCC1OCCc2ccccc21 (stereo unspecified)	-4.0%
109	COCCn1c(Sc2ccccc2)nc2c1c(=O)[nH]c(=O)n2C	20.8%
110	CCOC(=O)c1oc2ccccc2c1CN1CCN(C(=O)c2ccccc2)CC1	-3.8%
111	CC(=O)c1c(C)[nH]c(C(=O)CSc2nnc(CN3CCCCCC3=O)n2-c2ccccn2)c1C	4.3%
112	CC1(C)Cc2ccccc2C(=O)N1	6.3%
113	C[N+]1([C@H](CO)Cc2c[nH]c3ccccc23)Cc2ccccc2C1	2.7%[11.4 µM]
114	CC(NC(=O)Cn1nc(C(=O)O)c2ccccc2c1=O)c1ccccc1 (stereo unspecified)	9.8%
115	COCCSc1nnc(NC(=O)COC)s1	8.5%
116	c1ccc(CSc2nnc(-c3ccco3)n2Cc2ccco2)cc1	-9.7%
117	O=C(CSc1nc2ccccc2n1CC(=O)NCc1ccccc1)NCc1ccco1	-5.8%
118	O=C(c1cnccn1)N1CCC2(CCCN(c3ccc(-c4ccccc4)cc3)C2)CC1	-4.8%
119	FC(F)(F)c1ccc(CN2C[C@@H]3C(c4ccc(C(F)(F)F)cc4)C4(c5ccccc5)CC3(C4)[C@H]2c2ccccc2)cc1 (stereo partly specified)	-5.8%
120	CCOc1ccc(NC(=O)CSc2nccn2C)cc1	16.4%
121	Brc1ccccc1-c1nnc(CSc2nnc3sc4ccccc4n23)o1	-12.5%
122	COc1cccc(C(=O)Nc2c(C)n[nH]c2C)c1	4.0%
123	O=C(O)c1ccccc1-c1ccccc1C(=O)NCc1ccco1	13.2%
124	CN(C)S(=O)(=O)c1ccc(C(=O)Nc2ccc(Cl)cc2)cc1	-6.0%
125	ICCc1ccccc1	15.8µM*
126	N[C@H]1[C@@H](C(=O)O)[C@H]2C=C[C@H]1C2	8.8%[11.4 µM]
